Screening results from PubChem.
CapD inh = Bacillus anthracis CapD inhibitors, primary screen, biochemical, fluorescence intensity. CapD gamma-glutamyltranspeptidase (Bacillus anthracis Ames Ancestor). purified CapD enzyme, fluorescence intensity read-out; hits give low values; some hits fall short of the stated cut. z-score (test concentration not listed). 0.23% of 140,000 active;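 active means z-score under -4 in either of two replicates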;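 further: stock transfer was 100 nL into about 40 µL; score is relative to mean and spread of the plate; one replicate is shown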
AID504770 = growth inhibition of E. coli YBA685, primary screen, V. cholerae RctB inhibitors. E. coli YBA685 rctB-dependent plasmid, OD600 growth, 3 h; hits give low values. 0.27% of 130,000 active. z-score (no concentration beside the values);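 active means z-score under -2 on both plates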;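 further: wells of about 30 µL received 100 nL stock; score is relative to mean and SD of the test wells; the first replicate is given; strong numbers were not always called active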
Starred values were filed as active, the others as inactive. No enrichment for hits; any-hit rate near 0.37%.

Screening CCOC(=O)C1=C(C)NC2=C(C(=O)C(C(=O)OCC)C(c3ccc(OC)cc3)C2)C1c1ccc(F)cc1 (stereo not given) returned CapD inh 14.6.
`CC1(C)CC(=O)C2=C(C1)c1c(ccc3ccccc13)NC2c1cn(Cc2cccc(C(F)(F)F)c2)c2ccccc12` (stereo not given) gave CapD inh 10.4.
`COc1ccc(Oc2ncccc2NC(=O)c2cc(C(F)(F)F)cc(C(F)(F)F)c2)cc1` gave CapD inh 0.18.
`CCc1ccc(NC(=S)N(Cc2cccnc2)Cc2ccco2)cc1` gave CapD inh -0.29 and AID504770 0.15.
CCc1cc2c3c(c(=O)oc2cc1OCC(=O)OC(C)(C)C)CCCC3 was read as CapD inh 0.24 and AID504770 -0.25.
`O=C(CSc1ccccc1Cl)NCc1ccccc1Cl` gave CapD inh -1.02 and AID504770 1.45.
`N/C(=N\OC(=O)Nc1ccccc1)c1ccc2nonc2c1` gave CapD inh 0.01 and AID504770 0.6.
Screening O=C(CCCN1C(=O)c2cccc3cccc(c23)C1=O)Nc1nc(-c2ccc(F)cc2)cs1 returned CapD inh 0.77.
Screening CC(C)NCC(O)COc1ccc(COCCOC(C)C)cc1 (stereo not given) returned CapD inh 1.39.
Cc1cc(SCCOc2ccccc2)nc(N)n1 was read as AID504770 0.

The last four entries of the section before come first, to join the parts:
`N/C(=N\OC(=O)Nc1ccccc1)c1ccc2nonc2c1` gave CapD inh 0.01 and AID504770 0.6.
Screening O=C(CCCN1C(=O)c2cccc3cccc(c23)C1=O)Nc1nc(-c2ccc(F)cc2)cs1 returned CapD inh 0.77.
Screening CC(C)NCC(O)COc1ccc(COCCOC(C)C)cc1 (stereo not given) returned CapD inh 1.39.
Cc1cc(SCCOc2ccccc2)nc(N)n1 was read as AID504770 0.
Screening O=C(N/N=C/c1ccccc1O)C12CC3CC(CC(C3)C1)C2 returned AID504770 1.4.
`CSc1nc(C)cc(Nc2ccccc2)n1` gave CapD inh -0.28.
For CN(C)Cc1cc(CCNC(=O)c2ccc(Cl)cc2)ccc1O the results were CapD inh -0.25 and AID504770 2.2.
For COC(=O)c1c(C)oc(C)c1S(=O)(=O)Nc1ccc(C(C)C)cc1 the results were CapD inh 0.305 and AID504770 0.
COc1cccc(/C=N/n2c(N)nc3ccccc32)c1OC was read as AID504770 0.9.
Screening Cc1ccc(CC(=O)Nc2ccc3nc(N4CCN(c5ncccn5)CC4)cc(C)c3c2)cc1 returned CapD inh 1.87 and AID504770 0.7.
For O=C(NCc1cccnc1)c1csc2ccccc12 the results were CapD inh -0.325 and AID504770 -1.05.
CCCC(C(=O)Nc1ccccc1F)N1Cc2ccccc2C1=O (stereo not given) was read as CapD inh 0.28 and AID504770 -0.45.
CC1Oc2ccccc2N(CC(=O)NCc2ccccc2)C1=O (stereo not given) was read as AID504770 -0.6.
`Cc1ccc(N2C(=O)C(Cc3ccccc3)N=C2N(CCN(C)C)Cc2ccco2)c(C)c1` (stereo not given) gave CapD inh 2.05 and AID504770 0.05.

Gathered by group, the entries above with a CF3 group.
`CC1(C)CC(=O)C2=C(C1)c1c(ccc3ccccc13)NC2c1cn(Cc2cccc(C(F)(F)F)c2)c2ccccc12` (stereo not given) gave CapD inh 10.4.
`COc1ccc(Oc2ncccc2NC(=O)c2cc(C(F)(F)F)cc(C(F)(F)F)c2)cc1` gave CapD inh 0.18.

(cont.)
CCOC(=O)c1ccc2nc(-n3cccc3)sc2c1 was read as CapD inh -0.145.
CCN(CC)CC(=O)NC1(C)CCCCC1c1ccc(O)cc1 (stereo not given) was read as CapD inh 0.015 and AID504770 -0.95.
For FC(F)(F)c1ccc(-c2csc(-c3ccno3)n2)cc1 the results were CapD inh -0.62 and AID504770 1.35.
Screening CC1=C(C(=O)OCC2CCCO2)C(c2cccc(OCc3ccccc3)c2)NC(=O)N1 (stereo not given) returned CapD inh -0.53.
For N#Cc1ccccc1N=Cc1ccccc1O the results were CapD inh 5.88 and AID504770 1.15.
Screening O=C(O)C1CCN(S(=O)(=O)c2cccc3cccnc23)CC1 returned CapD inh -0.3 and AID504770 0.55.
Screening O=C1CCCC2=C1C(c1ccncc1)n1c(nc3ccccc31)N2 (stereo not given) returned CapD inh 70.1 and AID504770 1.45.
For Cc1ccccc1C(=O)c1cccn1CC(=O)NC(C)c1ccc2c(c1)OCCO2 (stereo not given) the results were CapD inh 13.1 and AID504770 0.55.
O=C(CNc1ccc(F)cc1F)Nc1ccc2c(c1)OC(F)(F)O2 was read as AID504770 -0.4.
`CSc1nnc2c(n1)OC(c1cc3c(cc1Br)OCO3)Nc1ccccc1-2` (stereo not given) gave CapD inh 0.645.

Looked up by compound from the entries so far (2):
CCOC(=O)c1ccc2nc(-n3cccc3)sc2c1 was read as CapD inh -0.145.
Screening O=C1CCCC2=C1C(c1ccncc1)n1c(nc3ccccc31)N2 (stereo not given) returned CapD inh 70.1 and AID504770 1.45.

The listing continues.
`CC(C)SC1=NSC2=NC(=O)/C(=C\c3ccc(-c4cccc(C(=O)O)c4)o3)C(=N)N21` gave CapD inh -13.2* and AID504770 -0.25.
Screening CCOC(=O)/C(C#N)=C/Nc1nc2ccccc2nc1N1CCOCC1 returned AID504770 -0.15.
For Cc1ccc(CNC(=O)C2CCC(=O)N2C2CCCCC2)cc1 (stereo not given) the results were CapD inh 0.835 and AID504770 -0.05.
For COc1ccc(-c2nnc3ccc(SCC(=O)NCCc4ccccc4)nn23)cc1OC the results were CapD inh 0.015 and AID504770 2.2.
For CCSCCOC(=O)C1=C(C)N(C)C(=O)NC1c1cc(Br)c(O)c(OC)c1 (stereo not given) the results were CapD inh -0.1.
Screening COc1ccc(Cl)cc1S(=O)(=O)NCCSCc1ccco1 returned CapD inh -0.455.
C#CCn1cc(/C=C(/C#N)C(=O)Nc2ccccc2)c2ccccc21 was read as AID504770 1.5.
For COC(=O)/C(C#N)=C/c1ccc(C)s1 the results were AID504770 -0.6.
`Cc1nc(SCC(=O)c2ccc(O)c(O)c2)c(C#N)c(CC(C)C)c1C(N)=O` gave CapD inh -0.5.
CC1CCCCC1NC(=O)NC(=O)CSc1nnnn1-c1ccc(Cl)cc1 (stereo not given) was read as AID504770 -0.55.
`COc1ccc(C(=O)CN2CCc3ccccc32)cc1` gave CapD inh -1.14 and AID504770 0.9.
O=C(Nc1ccc(Br)cn1)c1sc2ccccc2c1Cl was read as CapD inh -0.44 and AID504770 0.
For CCCCn1c2c(c(=O)[nH]c1=O)C(c1ccc(OC(F)F)cc1)C1=C(CCCC1=O)N2 (stereo not given) the results were AID504770 0.2.
For CCOc1ccc(NC(=O)CCCn2c(=O)[nH]c3ccccc3c2=O)cc1 the results were CapD inh 0.555 and AID504770 0.3.
For COc1ccc(NC(=O)Cn2c3ccccc3c(=O)c3cc(C)ccc32)cc1OC the results were CapD inh 0.625.
Screening CO/N=C/C(=N\Nc1ccc(OC)cc1)C(=O)c1ccc(Cl)c(Cl)c1 returned CapD inh -0.23.
Screening COc1cccc(-c2nc(COC(=O)C3=COCCO3)cs2)c1OC returned AID504770 0.05.
Screening Nn1c(SCc2cn3ccccc3n2)nnc1C1CC1 returned AID504770 -0.5.
CCNC(=O)C(C#N)=C1CCCCCC1 was read as CapD inh 0.315 and AID504770 0.05.
Screening COC(=O)c1sccc1N/C=C(\C#N)S(=O)(=O)C(C)(C)C returned CapD inh -2.43 and AID504770 -1.05.
`COc1cccc(C(=O)Nc2ccc(/C=C/c3nc4ccccc4s3)cc2)c1` gave CapD inh 9.59.
Screening CC(=O)NS(=O)(=O)c1ccc(-c2ccc(/C=C3/C(=O)N(CCCO)C(=O)C(C#N)=C3C)o2)cc1 returned CapD inh -0.8 and AID504770 -0.05.
Screening CN(C)c1cncc(C(=O)O)c1 returned AID504770 2.25.
`N#C/C(=C\N1CCOCC1)S(=O)(=O)c1ccc(Cl)cc1` gave CapD inh 0.64.
`COc1ccc(Nc2nnc(SCC(=O)c3cc(C)n(-c4nccs4)c3C)s2)cc1` gave AID504770 2.3.
Cc1cc(NC(=O)/C(=C/c2ccc3c(c2)OCO3)NC(=O)c2ccc(Br)cc2)ccc1Br was read as CapD inh -0.315.
CN=c1scc(C)n1NC(=O)Nc1ccc(Cl)cc1 was read as CapD inh 9.82 and AID504770 -0.75.
For Cc1ccc(NC(=O)CC2NC3CCCCC3NC2=O)cc1C (stereo not given) the results were CapD inh -0.08 and AID504770 0.05.
O=c1c2ccccc2ncn1CCOc1ccc(Br)cc1 was read as AID504770 0.1.
Screening CCc1ccc(-n2c(=S)sc3c(=O)n(-c4ccc(F)cc4)c(=S)[nH]c32)cc1 returned CapD inh -1.44.
Screening O/N=C(/C(=N/O)c1ccco1)c1ccco1 returned CapD inh 0.155 and AID504770 -0.4.
`COC(=O)CN1C(=O)/C(=C/c2ccc(OCc3ccccc3)c(OC)c2)SC1=S` gave CapD inh -0.21 and AID504770 0.15.
COc1ccc(N2C(=S)N=C(Nc3cccc(C)c3)C23CCCCC3)cc1 was read as CapD inh -0.31.
O=C(c1cc2n(n1)C(C(F)(F)F)CC(c1ccc3c(c1)OCO3)N2)N1CCN(c2cccc(Cl)c2)CC1 (stereo not given) was read as CapD inh 0.155.
For Cc1ccc(C)c(NC(=O)c2cc(S(=O)(=O)N3CCc4ccccc43)ccc2F)c1 the results were CapD inh 0.095.
For CCc1ccc(NC(=O)N(Cc2ccc3c(c2)OCO3)C2CCN(CC)CC2)cc1 the results were CapD inh -0.245 and AID504770 -0.35.
O=C(C1CC(c2ccccc2F)=NO1)N1CCCCCC1 (stereo not given) was read as CapD inh -0.605 and AID504770 0.2.
Screening COc1ccc(/C=C/C(=O)N2CCN(c3ccccc3)CC2)cc1OC returned CapD inh 0.795 and AID504770 -0.15.
`CCc1ccc(NC(=S)N2CCC(N(C)C(C)C)CC2)cc1` gave CapD inh -1.79 and AID504770 2.15.
`Cc1nc(-c2ccc(NC(=O)COCC(=O)O)cc2)cs1` gave CapD inh -0.195 and AID504770 0.05.
Screening O=C1CN(C(=O)c2ccccc2)C(c2ccc(Cl)cc2Cl)N1O (stereo not given) returned CapD inh -0.18.
CC(C)(C)C(=O)NC(Sc1nccc(=O)[nH]1)=C(Cl)Cl was read as CapD inh -1.53 and AID504770 -0.15.
For CCn1c(SCC(N)=O)nnc1-c1sc2cc(Cl)ccc2c1Cl the results were CapD inh -1.35 and AID504770 1.55.
COCc1nc2ccccc2n1Cc1cccc2ccccc12 was read as CapD inh -0.1 and AID504770 0.25.
Screening O=c1cc[nH]c2c1ccc1c(O)ccnc12 returned CapD inh 39.3 and AID504770 -0.1.
For NC(=O)CCc1nc(-c2ccccc2)no1 the results were AID504770 -0.95.
Screening O=c1c(CNc2cccc(C(F)(F)F)c2)cc2cccc3c2n1CCC3 returned CapD inh -0.475.
`On1onc2c3cc(-c4ccccc4)nc3ccc21` gave CapD inh -2.63 and AID504770 0.25.
Screening CCCCOC(=O)c1cc(-c2ccc(C=C3C(=O)NC(=S)NC3=O)o2)ccc1Cl returned CapD inh -0.19.
For O=c1[nH]ccc2c1c(=O)[nH]c1ccccc12 the results were CapD inh 68.9 and AID504770 1.3.
Cc1nc2ccccc2nc1SCC(=O)N1CCCCC1 was read as CapD inh 0.6 and AID504770 0.35.
`CCN1C2OC3OC4C(OC3OC2N(CC)S1(=O)=O)N(CC)S(=O)(=O)N4CC` (stereo not given) gave CapD inh 0.4 and AID504770 0.
For O=C(O)COCC(=O)Nc1cc(C(F)(F)F)cc(C(F)(F)F)c1 the results were CapD inh -0.7.
CCOC(=O)c1c(NC(=O)c2cccc(Cl)c2)sc(C(=O)Nc2ccc(OC)cc2OC)c1C was read as CapD inh -0.1.
`COc1ccc(C2=NN(C(=O)c3cc([N+](=O)[O-])c(N4CCOCC4)c([N+](=O)[O-])c3)C(c3cccc([N+](=O)[O-])c3)C2)cc1` (stereo not given) gave CapD inh 0.03.
`N#Cc1c(F)cccc1NC(=O)COCC(=O)O` gave CapD inh 0.44 and AID504770 -0.4.
`CC(C)Sc1ccc2nnc(-c3ccccn3)n2n1` gave CapD inh 0.325 and AID504770 -0.75.
`Cc1ccc(-n2nc(C)c3c(C)c(CCC(=O)NC(C)c4ccc5c(c4)OCCO5)c(C)nc32)cc1` (stereo not given) gave CapD inh -0.065 and AID504770 0.05.
`COc1ccc(C(=O)N2CCn3c2nc2ccccc23)cc1OC` gave CapD inh -0.39 and AID504770 0.55.
`CCCSc1nnc2c(n1)OC(C)(C)Nc1ccccc1-2` gave CapD inh -0.61 and AID504770 1.05.

Arranged by formula weight (high to low): part of the list above
For Cc1ccc(C)c(NC(=O)c2cc(S(=O)(=O)N3CCc4ccccc43)ccc2F)c1 the results were CapD inh 0.095.
Screening Nn1c(SCc2cn3ccccc3n2)nnc1C1CC1 returned AID504770 -0.5.
`N#Cc1c(F)cccc1NC(=O)COCC(=O)O` gave CapD inh 0.44 and AID504770 -0.4.

Next part:
Screening Fc1ccc(Oc2nc(Oc3ccc(F)cc3)nc(N3CCSCC3)n2)cc1 returned CapD inh 0.88 and AID504770 0.1.
`CCc1cccc(NC(=O)CCS(=O)(=O)c2ccc3c(c2)SCC(=O)N3)c1` gave CapD inh -0.595 and AID504770 -1.
For N#CC(C#N)=C(N)COc1cccc(Cl)c1 the results were CapD inh 0.225 and AID504770 2.2.
Screening CC(C)=C1C(=O)N(c2ccccc2)C(=S)N1c1ccccc1 returned CapD inh -0.11 and AID504770 -0.95.
